Anthrax LT inh: qHTS Assay for Anthrax Lethal Toxin Internalization | Cells, anthrax lethal toxin internalization, FRET ratio (460/530) | Potency, µM (doses to about 40 µM), inactives show top-dose activity change, negative = inhibition, most hits filed as inhibitors | hit rate 0.67% among 70,000 | AID 912, 2007; active = well fitted falling ratio curve with the 530 nm signal flat; inconclusive = other ratio curves, or a change in one channel alone; inactive = flat curves in the ratio and both channels; the % refers to the ratio; note: % is set by controls: 0 for no effect and ±100 for the full control effect; nearly all actives have a fitted effect of over 50% in size; tested in ME-180 cells; beta-lactamase reporter
Prx2 Sm inh: Schistosoma Mansoni Peroxiredoxins (Prx2). hit rate 0.07% among 65,000. AID 448, 2006. S. mansoni Prx2 activity coupled to TGR/GSH (TGR is thioredoxin glutathione reductase), NADPH fluorescence loss, qHTS; some inactives read as strong as hits. Schistosoma mansoni peroxiredoxin 2 (Prx2). Potency, µM; active means full or partial inhibition curve with a strong effect at the top dose; inconclusive means weaker partial or single-point curve; inactive means no accepted curve; note: series up to 57 µM; many of its hits are not listed in these tables
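Prx2 activity was followed as the loss of NADPH fluorescence (ex 365/em 450 nm), read every 30 sec for 8 min after H2O2 start. The enzyme mix (50 nM Prx2, 25 nM TGR, GSH, NADPH; pH 7.4 phosphate buffer) was incubated with compound for 15 min at room temperature first.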
The depositor's hits bear a star; ? = inconclusive; . = not tested or not shown; & = joins results of further samples; [ ] = another dose, or the depositor's remark. Potency is the fitted concentration of half-maximal effect.

Compound	Anthrax LT inh	Prx2 Sm inh
Clc1ccc(-n2cnnn2)cc1	?	>57
O=C(CSc1nnc([C@@H]2CCCN2)o1)c1ccc(Cl)cc1	-11%	>57
CC1(C)N=C(c2cccc(F)c2)C(=O)N1	3%	>57
O=c1oc2cc(OCc3nn[nH]n3)ccc2c2c1CCCC2	.	>57
Cn1c(=O)c2[nH]c(NCC3CCCO3)nc2n(-c2ccccc2)c1=O (configuration not stated)	.	>57
CCCn1c(=S)[nH]c2cc(C(=O)N3CCN(c4ccccc4OC)CC3)ccc2c1=O	.	>57
COc1ccc(-c2cc3c(=O)n(CC(=O)NC4CCN(Cc5ccccc5)CC4)ncn3n2)cc1	3%	>57
CCN1C(=O)CC(N2CCN(c3ccc(C(=O)c4ccccc4)cc3)CC2)C1=O (configuration not stated)	-16%	>57
CCc1c(C(=O)NCCc2ccc(OC)c(OC)c2)[nH]c(C)c1C(C)=O	-3%	>57
COC(=O)c1ccc(C(NC(=O)OCc2ccccc2)/C(=C/[C@@H](C)C(=O)N[C@@H](CO)Cc2ccccc2)c2cccnc2)cc1 (some centres not stated)	9%	.

(listing goes on)
Compound	Anthrax LT inh	Prx2 Sm inh
CCOC(=O)C(Sc1ncn[nH]1)c1ccccc1 (configuration not stated)	-1%	.
CC12CN3CC(C)(CN(C1)C3c1ccccc1Cl)C2O (configuration not stated)	0%	>57
Cc1ccc(-n2cc(-c3ccccc3)[nH]c2=O)cc1F	6%	>57
O=c1[nH]c(=O)n(Cc2ccccc2)c2c1CCC2	-16%	>57
CCCC(=O)Nc1cc(-c2cn3cccnc3n2)ccc1OC	-11%	>57
O=C(c1ccccc1)n1ccc2ccccc21	-27%	.
O=C(Cn1c(=O)sc2ccccc21)NCc1ccco1	-6%	>57
CCN1C(=O)c2cccc3c(NC(=O)C(C)(C)C)ccc1c23	-13%	>57
CCCCOc1ccc(N2C(=O)CC(N(O)c3ccccc3)C2=O)cc1 (configuration not stated)	-26%	.
CC(OC(=O)C1CC=CCC1C(N)=O)C(Cl)=C(Cl)Cl (configuration not stated)	-3%	>57

Going on with the list:
Compound	Anthrax LT inh	Prx2 Sm inh
CS(=O)(=O)N1CCN(c2ccccc2NC(=O)Cc2ccccc2)CC1	8%	>57
O[C@H]1C2CCC1C(N1CCCCC1)CC2 (some centres not stated)	-16%	>57
CCC(C)[C@H](NC(=O)NCc1ccccc1)C(=O)O (some centres not stated)	-17%	>57
C/C(=N\NC(=O)c1ccncc1)c1ccc2ccccc2c1O	-10%[8 µM]	>57
Cn1c(=O)c2nnn(/N=C(\c3ccccc3)C3CC3)c2n(C)c1=O	-11%	>57
O=C(NCCN1CCCC1)c1cc(-c2ccncc2)nc2ccc(S(=O)(=O)N3CCOCC3)cc12	3%	>57
O=C(O)CCN1C(=S)CSC1=S	1%[8 µM]	>57
C=CCN1C(=O)CSc2ccc(C(=O)OCC)cc21	?	>57
CN1CCN(CCP(=O)(c2ccccc2)c2ccccc2)CC1	9%	.
COc1cccc(N=C2SC(C(=O)Nc3ccc(F)cc3)CC(=O)N2C)c1 (configuration not stated)	-10%	>57

The listing continues.
Compound	Anthrax LT inh	Prx2 Sm inh
COCCOC(=O)c1c(C)oc2ccc(OC(=O)c3cccs3)cc12	?	>57
COC(=O)Nc1ccc(S(=O)(=O)N(CCO)CC(F)(F)C(F)F)cc1	6%	>57
Cc1cc(O)c(NC(=O)c2ccc(Br)o2)cc1C	?	>57
C=CCN1C(=O)CS/C1=N/c1nccs1	-12%	>57
CSc1ccc(/C=N/n2c(C)cc(C)cc2=O)cc1	-19%	.
C#CCCCO/N=C1/C[C@@H](O)[C@@H](O)[C@@H]2[C@@H]3C(=O)N(Cc4ccccc4)C(=O)[C@H]3CC[C@H]12	-2%[8 µM]	.
CN=C(N)NCCC[C@H](N)C(=O)O	13%&-6%	>57&>57
CC(=O)N1CCC2(CC1)CN(C(c1ccccc1)c1ccccc1)C2	3%	>57
Cc1cccc(CC(=O)Nc2c3c(nn2-c2cccc(Cl)c2)CS(=O)C3)c1 (configuration not stated)	-4%	>57
Cc1noc(C)c1COC(=O)c1ccc2ccccc2n1	1%	>57

(next part)
Compound	Anthrax LT inh	Prx2 Sm inh
COc1cc(C2C(C(=O)N3CCOCC3)=C(C)NC3=C2C(=O)CCC3)ccc1OC(C)=O (configuration not stated)	-6%	.
Cn1c(=NC(=O)CN2C(=O)C3CC=CCC3C2=O)sc2ccccc21 (configuration not stated)	-3%	>57
CC(=O)Nc1ccc(-c2nn3c(C)nnc3s2)cc1C	-1%	>57
CN1C[C@H](c2ccccc2)C(O)([C@]2(c3ccccc3)CN(C)C[C@@H](c3ccccc3)C2=O)[C@H](c2ccccc2)C1 (some centres not stated)	22%[8 µM]	>57
COC(=O)C(C)Sc1nnc(Cc2cc(=O)[nH]c(=O)[nH]2)n1-c1cc(C)ccc1C (configuration not stated)	-5%	>57
COc1ccc(C(=O)Nc2nc3ccccc3[nH]2)cc1OC	1%	>57
Cc1cc(C)c2cc(CN(Cc3ccco3)C(=O)NCc3ccccc3)c(=O)[nH]c2c1	-3%	>57
Cc1nc(C)c(C(=O)OCC(=O)N2CCN(c3ccccc3)CC2)s1	-5%	>57
N[C@H](C(=O)O)[C@@H](O)c1cnc[nH]1	-2%[8 µM]	>57
Cc1cccc(-c2nc(CS(=O)CC(=O)N3CCN(C)CC3)c(C)o2)c1 (configuration not stated)	4%	>57

Further compounds
Compound	Anthrax LT inh	Prx2 Sm inh
O=C(CSc1nnc(-c2cnccn2)n1Cc1ccco1)c1ccccc1	-1%	>57
CCN1CCn2c1nc(N1CCOCC1)nc2=O	?	>57
CC(C)(Cl)[N+](=O)[O-]	-6%	.
O=C(CC1NCCNC1=O)Nc1ccc(Oc2ccccc2)cc1 (configuration not stated)	0%	>57
C/C(=N/S(=O)(=O)c1ccc(Cl)c(Cl)c1)OCC(C)(C)C	0%[8 µM]	>57
COc1ccc(OC)c(NC(=O)CSCc2cnn(-c3ccccc3)c2-n2cccc2)c1	?	>57
COc1cccc(S(=O)(=O)NCc2ccc(C(=O)NCC3CCCO3)cc2)c1 (configuration not stated)	23%	>57
Cc1ccc(S(=O)(=O)n2nc(C)c(Br)c2C)c(C)c1C	13µM*	>57
COC(=O)c1cccc(N2C(=O)c3cccnc3C2=O)c1	?	>57
CCc1ccccc1Nc1ccc(C(=O)O)cc1N	?	>57

(cont.)
Compound	Anthrax LT inh	Prx2 Sm inh
O=C(O)CNC(=O)c1ccc2c(c1)OCCO2	-12%	>57
CCCCCCOc1ccc(CN2CCN(C)CC2)cc1	?	.
CC1(C)CC(=O)C(CC2=C(O)CC(C)(C)CC2=O)C(=O)C1	4%	>57
O=S(=O)(c1ccc(N2CCCC2c2nc3ccccc3s2)nc1)N1CCOCC1 (configuration not stated)	5%	>57
N#CCc1ccccc1	-5%	.
Nc1ccc(N=Nc2ccc(-c3ccc(O)cc3)cc2)c2ccc(S(=O)(=O)O)cc12	-4%[8 µM]	>57
CCOC(=O)C1=C(C)NC(=O)C(C#N)C1c1ccco1 (configuration not stated)	-13%	>57
CCOc1ccc(NC(=O)C2CC(=O)N3CCCN=C3S2)cc1 (configuration not stated)	9%	>57
CCC(=O)Nc1c(OC(=O)CC)ccc2c(C)cc(=O)oc12	?	?
Cn1c(=O)c2c(nc(NCc3ccccc3)n2C)n(C)c1=O	5%	.

Compounds shown so far that have an aryl methoxy group:
Compound	Anthrax LT inh	Prx2 Sm inh
CCCn1c(=S)[nH]c2cc(C(=O)N3CCN(c4ccccc4OC)CC3)ccc2c1=O	.	>57
COc1ccc(-c2cc3c(=O)n(CC(=O)NC4CCN(Cc5ccccc5)CC4)ncn3n2)cc1	3%	>57
CCc1c(C(=O)NCCc2ccc(OC)c(OC)c2)[nH]c(C)c1C(C)=O	-3%	>57
CCCC(=O)Nc1cc(-c2cn3cccnc3n2)ccc1OC	-11%	>57
COc1cccc(N=C2SC(C(=O)Nc3ccc(F)cc3)CC(=O)N2C)c1 (configuration not stated)	-10%	>57
COc1cc(C2C(C(=O)N3CCOCC3)=C(C)NC3=C2C(=O)CCC3)ccc1OC(C)=O (configuration not stated)	-6%	.
COc1ccc(C(=O)Nc2nc3ccccc3[nH]2)cc1OC	1%	>57
COc1ccc(OC)c(NC(=O)CSCc2cnn(-c3ccccc3)c2-n2cccc2)c1	?	>57
COc1cccc(S(=O)(=O)NCc2ccc(C(=O)NCC3CCCO3)cc2)c1 (configuration not stated)	23%	>57

Later entries:
Compound	Anthrax LT inh	Prx2 Sm inh
Cc1cc(NC(=O)c2noc3c2CCc2ccccc2-3)n(-c2ccccc2)n1	-11%	>57
CC(OC(=O)c1cccs1)C(=O)NCc1ccccc1 (configuration not stated)	6%	>57
Cc1ccc2[nH]c(=O)c3cc(C(=O)N(C)Cc4ccco4)sc3c2c1	-18%	>57
CC(=O)O[C@H]1CC[C@@]2(C)[C@@H](CC[C@H]3[C@H]2CC(=O)[C@@]2(C)[C@@H]3C[C@H]3CC(C)=CC(=O)[C@H]32)C1	?	>57
O=C(O)c1cn[nH]c1-n1cnnn1	-2%	>57
COc1ccc(NC(=O)c2ccc(OC)cc2)cc1	-2%	>57
O=C(c1ccncc1)N1CCC[C@@]2(CCN(c3ccccc3)C2)C1	?	>57
COc1ccc(S(=O)(=O)N2CCC(C(=O)N3CCc4ccccc4C3)CC2)cc1OC	5%	.
Cc1ccc(C(=O)NCc2nnc(SCC(=O)Nc3sc4c(c3C#N)CCCC4)n2C)cc1	1%	>57
Cc1ccc(OCC(=O)NCCO)cc1C	-4%	>57

Next part:
Compound	Anthrax LT inh	Prx2 Sm inh
CC(=O)c1cc2ccccc2oc1=O	5%[3.58 µM]	>57
O=C1CCCCC1	-4%	.
OCCCNCc1ccccn1	10%[8 µM]	>57
CC(C)Cc1cc(-c2ccco2)c(C#N)c(N)n1	-9%	.
CCN(CCCNc1ncnc2nc[nH]c12)c1cccc(C)c1	20%	>57
O=C(c1cccs1)N(Cc1cccc(Cl)c1)C1CCS(=O)(=O)C1 (configuration not stated)	-5%	>57
CCc1nn2c(=O)cc(N3CCN(c4cc(C)nc5ccccc45)CC3)nc2s1	-4%	>57
O=C1C2CC=C(Cl)CC2C(=O)N1CC1Cc2ccccc2CO1 (configuration not stated)	-1%	>57
Cc1ccc(C(C)C)c(OCCN)c1	?	>57
O=C(Nc1cccc(Cl)c1Cl)C1CCN(c2ncccn2)CC1	-6%	>57

Next part:
Compound	Anthrax LT inh	Prx2 Sm inh
CCOC(=O)c1cc(C)n(Cc2ccccc2)c1C	-8%	>57
COC(=O)[C@H](CC(C)C)NC(=O)Nc1ccc2c(c1)OCCO2	?	>57
O=C(CCSc1nc(-c2ccco2)cc(C(F)(F)F)n1)N1CCCc2ccccc21	?	>57
Cc1cc(C)nc(N2CCN(c3nc(C)cc(C)n3)CC2)n1	-20%	>57
O=C(c1nn2c(C(F)(F)F)cc(-c3ccccc3)nc2c1Cl)N1CCOCC1	-2%	>57
CCN1C(=O)c2cccc3c(S(=O)(=O)Nc4c(C)n(C)n(-c5ccccc5)c4=O)ccc1c23	3%	>57
CCn1c(SCC(=O)N2CCc3ccccc32)nc2c(c1=O)SC(C)C2 (configuration not stated)	8%	>57
CCOC(=O)/C=C1\NC(C)(C)Cc2cc(OC)c(O)cc21	?	>57
O=C(CN1C(=O)C2CC=C(Cl)CC2C1=O)N1CCOCC1 (configuration not stated)	-1%	>57
CCC(=O)Nc1ccc(Cl)c(NC(=O)c2ccc(Br)o2)c1	-23%	>57

Carrying on.
Compound	Anthrax LT inh	Prx2 Sm inh
Nc1ccc(C(=O)c2ccccc2C(=O)O)cc1Cl	6%	>57
O=C(Nc1ccc2c(c1)oc1ccccc12)N1CCOCC1	?	>57
O=C(CN1CCN(Cc2ccccc2)CC1)NCC1COc2ccccc2O1 (configuration not stated)	-17%	>57
Cn1c(=O)[nH]c(=O)c2c1nc(OC(=O)c1ccccc1)n2CC(O)COc1ccccc1 (configuration not stated)	-1%	>57
COc1cccc(NC(=O)NC2(C(F)(F)F)Oc3ccccc3O2)c1	?	>57
CCCCN(C)C(=O)C1CCN(Cc2ccccn2)CC1	-10%	>57
COc1cc(NC(=O)C2C3C=CC(C3)C2C(=O)O)c(OC)cc1Cl (configuration not stated)	-6%	.
CCCc1ccc(Oc2cn[nH]c2-c2ccc(O)c(C)c2O)cc1	?	>57
Cc1oc(-c2ccc3c(c2)OCCO3)cc1C(=O)NC(CCC(=O)O)C(=O)O (configuration not stated)	2%	>57
O=C(COC(=O)c1ccc(S(=O)(=O)N2CCOCC2)cc1)NC1CCCC1	?	>57

Further structures.
Compound	Anthrax LT inh	Prx2 Sm inh
CCn1cc(C(=O)NCC2CCCO2)c(=O)c2cc(S(=O)(=O)N3CCCCCC3)ccc21 (configuration not stated)	?	>57
C=CCN(C(=O)Nc1ccc(Cl)cc1)C1CC(=O)N(c2ccc(OC)cc2)C1=O (configuration not stated)	-11%	>57
Cc1cccc2cc(CN(CCCO)C(=O)Nc3ccc(Cl)cc3)c(=O)[nH]c12	-21%	>57
COc1cc(C(=O)Nc2cccc(-c3nncn3C)c2)cc(OC)c1OC	-16%	.
CSC1=C(C#N)C(C)C2=C(CC(C)(C)CC2=O)N1 (configuration not stated)	4%	>57
COc1cc(NS(=O)(=O)c2ccc(NC(=O)c3ccc(C)o3)cc2)nc(OC)n1	6%	>57

Assay outcomes (PubChem)

A portion of the library; rates above refer to the full screens.
